# LANA-H2A inh: blocks KSHV LANA binding to histone H2A/H2B; actives 0.6% (n = 320,000); Q9QR71; AID 2629; cell-free LANA-H2A/H2B peptide, fluorescence polarization; inhibition, % (no concentration beside the values); in the data active = inhibition mostly above about 10%, no sharp cut-off; inactive = mostly below about 6.7%;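 note: stock transfer was 7.5 nL into about 10 µL; 0% = median of vehicle wells and 100% = median of positive control wells; one replicate is shown; the record names a cut of 25% in any replicate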
# A1 inh: inhibitors of the anti-apoptotic protein A1, read as caspase activation; actives 0.066% (n = 330,000); MEF A1-2A-BIM cells, Caspase-Glo 3/7 luminescence, 3 h; percent of clofoctol response, vehicle zero; caspase activation, % (no concentration beside the values);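 active = over half of replicate activation scores above 10%, or exactly half above 10 with the replicate mean above 10; inconclusive = replicate mean below 10 yet half the replicates above 10; inactive = over half of replicates below 10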;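 note: wells of about 30 µL received 50 nL stock; many hits fall short of the cut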
# Beta cell apopt: blocks beta cell apoptosis | INS-1E cytokine-induced death, ATP luminescence, 48 h; percent of positive-control rescue, neutral wells zero | protection from apoptosis, % (no concentration beside the values) | actives 0.8% (n = 300,000);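 active = all replicates at 75% or more, or half of them and the mean; inconclusive = half reach 75% but not the mean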;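 note: 0% = cytokine-treated negative control wells and 100% = positive control rescue; higher means more ATP so stronger rescue from cytokine killing; wells of about 40 µL received 100 nL stock; the first replicate is given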
# T cruzi inh: blocks replication of Trypanosoma cruzi; T. cruzi beta-gal in NIH3T3, luminescence, 90 h; inhibition, % (test concentration not listed); actives 1.4% (n = 300,000);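 active = mean inhibition across valid replicates above about 55%, limit read from the data; inconclusive = mean below that limit but half or more replicates reach it; inactive = mean below it, under half of replicates reach it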;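 note: signal also drops with host cell toxicity which is not excluded here; 0% = plate median of DMSO wells and 100% = zero luminescence signal; higher percent means less beta-gal luminescence so fewer parasites; stock transfer was 50 nL into about 50 µL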
# RanGTP-Impb inh: inhibitors of RanGTP-importin-beta interaction, primary screen, biochemical, FRET, CFP-Ran, YFP-importin-beta, homogeneous | cell-free CFP-Ran/YFP-importin-beta FRET ratio | inhibition, % (concentration not given with the values) | actives 1.1% (n = 300,000) | AID 2216;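 active = most replicates above 15%; inconclusive = exactly half above 15%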;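 note: 0% = DMSO wells and 100% = Ran loaded with GDP instead of GTP; wells of about 40 µL received 100 nL stock; the first replicate is given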
# Calb FLC: C. albicans growth modulation with fluconazole | C. albicans CaCi-2 (fluconazole-resistant clinical isolate) + fluconazole, Alamar Blue growth, 48 h | growth inhibition, % (no concentration beside the values) | actives 0.57% (n = 300,000);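 active = most replicates above 75%; inconclusive = exactly half above 75%; inactive = most below 75%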;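 note: all wells also contain fluconazole at 8 µg/ml as a sub-toxic cotreatment; 0% = median of DMSO wells and 100% = median of geldanamycin control wells; wells of about 8 µL received 7.5 nL stock; the first replicate is given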
# Beta2AR agonist: agonists of human beta-2 adrenergic receptor inducing internalization; P07550; Am2.2-beta2AR cells, FAP receptor internalization, flow cytometry; reference of the scale not given here; response, % (no concentration beside the values); actives 0.43% (n = 340,000); AID 504454;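 active = response above a set limit, near 3 SD of response in nonfluorescent compounds, cut at about 42% in these data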;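 note: stock transfer was 100 nL into about 11 µL; a reference agonist was the positive control; negative values mostly stem from fluorescent compounds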
# Target sequence (P07550 whole entry, looked up): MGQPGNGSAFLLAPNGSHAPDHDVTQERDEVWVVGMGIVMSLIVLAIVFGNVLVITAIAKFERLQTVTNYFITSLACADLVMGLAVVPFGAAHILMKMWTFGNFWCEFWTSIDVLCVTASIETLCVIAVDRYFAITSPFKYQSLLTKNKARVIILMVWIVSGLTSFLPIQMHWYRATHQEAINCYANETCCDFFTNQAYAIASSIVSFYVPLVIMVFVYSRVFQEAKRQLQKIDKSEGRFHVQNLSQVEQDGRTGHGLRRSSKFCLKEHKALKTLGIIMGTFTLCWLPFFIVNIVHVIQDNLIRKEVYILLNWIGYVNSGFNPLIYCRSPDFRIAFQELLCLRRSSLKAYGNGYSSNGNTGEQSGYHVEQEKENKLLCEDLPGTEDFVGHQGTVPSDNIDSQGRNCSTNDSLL
# UCH37 DUB inh: human UCH37 deubiquitinating enzyme inhibition; purified proteasome/UCH37, Ub-AMC cleavage fluorescence; AID 588478; inhibition, % (concentration not given with the values); actives 0.33% (n = 330,000);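 active = mean of two replicates above 20%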;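 note: 0% = compound-free wells with enzyme and 100% = wells lacking proteasome; stock transfer was 100 nL into about 20 µL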
# Target sequence (Q9Y5K5 whole entry, looked up): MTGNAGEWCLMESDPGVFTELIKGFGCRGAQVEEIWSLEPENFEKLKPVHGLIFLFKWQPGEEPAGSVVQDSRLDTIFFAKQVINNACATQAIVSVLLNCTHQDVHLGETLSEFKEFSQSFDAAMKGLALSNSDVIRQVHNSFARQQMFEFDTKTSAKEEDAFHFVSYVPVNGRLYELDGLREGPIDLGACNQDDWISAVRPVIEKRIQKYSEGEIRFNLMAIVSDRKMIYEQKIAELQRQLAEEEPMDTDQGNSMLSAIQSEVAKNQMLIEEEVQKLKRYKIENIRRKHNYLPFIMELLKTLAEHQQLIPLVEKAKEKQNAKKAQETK
#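 Test system – human UCH37 enzyme supplied as purified proteasome complex · Incubation – 30 min preincubation with enzyme, 25 min cleavage at room temperature · Detection – AMC fluorescence from Ub-AMC cleavage, excitation 355 nm, emission 460 nm · Benchmarks – no-proteasome wells (full inhibition) and compound-free wells (no inhibition)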
# Active calls of the source: *; ? = inconclusive; · = no result given. The order is random; about 4.3% have a hit in one of these screens.
SMILES,LANA-H2A inh,A1 inh,Beta cell apopt,T cruzi inh,RanGTP-Impb inh,Calb FLC,Beta2AR agonist,UCH37 DUB inh
COc1ccc(C(CNC(=O)c2cccn2C)N2CCOCC2)cc1 (stereo unspecified),-16,-0.4,-1,·,·,·,3,0.2
CN(Cc1ccccc1)C(=O)CC(c1ccccc1)c1cc(Cl)ccc1O (stereo unspecified),2.4,0.6,1,·,1.7,2,5,3.0
COC(=O)C(NC(=O)CNS(=O)(=O)c1ccc(Br)cc1)c1ccccc1 (stereo unspecified),2.9,0.0,0,-8,-5.9,2,1,0.1
O=C(c1cccs1)N1CCN(c2ccc(Cl)cc2)CC1,-5.5,-0.1,4,-8,-4.0,-1,1,4.3
O=C(Oc1ccc(O)cc1)C12CC3CC(CC(C3)C1)C2,0.4,-0.3,-6,-16,4.2,4,5,2.0
COc1ccc2c(c1)c(CC(=O)NCc1cc([N+](=O)[O-])ccc1O)c(C)n2C(=O)c1ccc(Cl)cc1,2.6,0.2,8,-1,2.2,-2,5,2.9
O=C(CCS(=O)(=O)c1ccccc1)Nc1nnc(C(F)(F)F)s1,3.7,0.4,-3,-10,-2.2,97*,-2,1.9
COC(=O)C1=C(C)NC(=O)NC1c1ccco1 (stereo unspecified),5.4,-0.4,8,-4,2.0,-11,-2,-2.5
O=S(=O)(NC1CCCCC1)c1ccc(Cl)s1,5.5,0.2,-3,12,-2.1,-51,8,0.9
CC(C)c1ccc(C(=O)NN2CCOCC2)cc1,-2.5,1.5,2,-6,1.6,-4,5,4.5
CCCC(=O)Nc1nc2nc(-c3ccccc3)cc(=O)n2[nH]1,-2.4,-0.1,-3,-30,2.9,4,0,-0.7
Cc1cc(C(=O)COc2ccc(C#N)cc2)c(C)n1C1CC1,-3.9,-0.2,-1,-1,0.9,19,-4,-1.8
Cc1ccc2[nH]c(=O)c(CN(C(=O)c3cccs3)c3ccccc3)cc2c1,-8.3,0.1,-2,-15,-1.3,-6,3,-5.6
C#CCOCCOCCOCCNc1nc(N2CCOCC2)nc(N2CCN(C(=O)[C@H](Cc3ccc(O)cc3)n3cc([C@@H](N)C(C)CC)nn3)CC2)n1 (stereo partly specified),-2.0,0.4,-2,-16,-2.9,-11,-6,0.9
Cc1c(NC(=S)NC(=O)c2cc3ccccc3o2)c(=O)n(-c2ccccc2)n1C,-10,0.4,-1,5,0.8,-2,4,3.2
COc1ccc(C2=NOC(Cn3nc(C(=O)NCC4CC4)cc3-c3ccccc3)C2)cc1 (stereo unspecified),0.5,1.2,-4,-3,-5.1,13,-10,1.9
Cn1cccc1Cc1nnc(SCC(N)=O)n1CCc1ccccc1,-4.4,0.7,-3,-8,2.3,-6,0,2.1
COC(=O)Cc1c(O)ccn(Cc2ccc(F)cc2)c1=O,4.8,-0.4,1,·,0.1,-3,7,0.8
COc1ccc(Cl)cc1C(=O)N1CCN=C1SC,-1.5,-0.3,4,1,4.8,9,4,0.4
C=CCn1c(SCC(=O)c2ccc(O)c(O)c2)nnc1-c1ccc(C)cc1,5.8,1.7,2,·,·,·,-2,6.8
COc1ccc2c(c1)[C@H]1[C@H](CO2)[C@H](c2ccccc2)[C@]2(C)C(=O)Nc3cc(F)c(F)cc3C(=O)N12,7.2,0.8,4,·,·,·,7,3.6
CN(C)c1ccc(P(=O)(CC(=O)N/N=C/c2ccc(C#N)cc2)OCCCl)cc1 (stereo unspecified),-5.2,-0.1,1,-13,4.9,8,-9,·
Cn1cc(S(=O)(=O)Nc2ccc(Cl)cc2Cl)c(=O)n(C)c1=O,0.8,0.4,5,8,-0.9,0,4,1.6
O=C(COc1ccc(F)cc1Br)N1CCc2ccccc21,-2.3,-4.6,2,9,-2.0,-5,3,3.0
CN1C/C(=N\S(=O)(=O)c2ccccc2)N(C)C1=O,6.8,0.4,-3,-12,-0.2,-6,-5,·
CC1=NN(c2ccc([N+](=O)[O-])cc2)C(c2ccccc2)C1 (stereo unspecified),3.3,0.1,3,8,-0.3,16,10,3.7
COc1ccc(CC(=O)N2CCN(c3ccccc3OC)CC2)cc1OC,-3.7,1.0,·,-4,0.7,35,1,-0.6
COc1ccc2nc(N3C(=O)CC(Cc4cc(C)cc(C)c4)C3=O)sc2c1 (stereo unspecified),-8.2,0.2,-5,-15,-0.3,0,4,-1.0
Cc1ccccc1OCC(=O)NCC(c1cccs1)N1CCOCC1 (stereo unspecified),1.9,-0.2,0,4,3.0,6,-2,-1.0
COC(=O)c1cc(S(=O)(=O)NCCc2ccc(Cl)cc2)c[nH]1,1.4,-0.1,-5,-6,?,0,7,6.6

# Part of the list above, reformatted.
# Value order – LANA-H2A inh	A1 inh	Beta cell apopt	T cruzi inh	RanGTP-Impb inh	Calb FLC	Beta2AR agonist	UCH37 DUB inh
Cn1cccc1Cc1nnc(SCC(N)=O)n1CCc1ccccc1
 : -4.4	0.7	-3	-8	2.3	-6	0	2.1
COC(=O)Cc1c(O)ccn(Cc2ccc(F)cc2)c1=O
 : 4.8	-0.4	1	·	0.1	-3	7	0.8
COc1ccc(Cl)cc1C(=O)N1CCN=C1SC
 : -1.5	-0.3	4	1	4.8	9	4	0.4
C=CCn1c(SCC(=O)c2ccc(O)c(O)c2)nnc1-c1ccc(C)cc1
 : 5.8	1.7	2	·	·	·	-2	6.8

# (listing goes on)
SMILES,LANA-H2A inh,A1 inh,Beta cell apopt,T cruzi inh,RanGTP-Impb inh,Calb FLC,Beta2AR agonist,UCH37 DUB inh
O=C(Cc1ccc(S(=O)(=O)N2CCOCC2)s1)Nc1ccc(N2CCOCC2)cc1,0.6,1.0,-6,16,-1.8,-1,-1,1.3
O=C(NCc1ccccn1)Nc1ccccc1Cl,-1.3,0.7,-11,-8,4.4,6,-2,1.3
CC(=O)c1ccc(-n2c(C)ccc2-c2ccccc2)cc1,-1.6,0.1,-14,14,-5.1,7,13,-0.4
COC(=O)c1cc(S(=O)(=O)Nc2cccc(-c3cnco3)c2)oc1C,-6.1,0.1,-3,-2,-1.9,-8,4,1.0
CCC(=O)N1CCc2cc(S(=O)(=O)NC(Cc3ccccc3)C(=O)Nc3nccs3)ccc21 (stereo unspecified),·,1.2,-11,-1,3.6,?,-10,-3.4
CN1CCN(C(=O)/C=C\C(=O)O)CC1,4.8,1.2,0,-10,0.2,-13,7,1.7
CCOC(=O)c1nn(-c2cccc(Cl)c2)c2nc(Nc3ccccc3)cc(=O)n12,1.0,0.0,-4,16,1.9,-2,2,4.6
C/C(=C\c1ccccc1)CN1CCC(C(=O)N2CCC(C)CC2)CC1,7.8,2.9,-1,-8,1.0,-1,-5,1.1
CC[C@@]12C(=O)N(c3cccc(F)c3)C(=O)N1[C@H](c1ccc(OC)cc1)[C@@H]1C(=O)N(C(C)(C)C)C(=O)[C@@H]12,4.2,1.2,-2,1,3.6,9,-3,1.2
COc1ccc(S(=O)(=O)N2CCC(C(=O)Nc3ccc4c(c3)OCCO4)CC2)cc1OC,-0.9,0.5,-2,-1,-1.8,-1,-9,4.1
Cc1cc(N2CCN(c3nnnn3-c3ccccc3)CC2)n2ncnc2n1,3.4,1.7,-4,-2,-1.7,-2,2,3.8
CCOC(=O)CN(C(=O)Cn1nnc2ccccc21)C(C(=O)NCCOC)c1ccccc1C (stereo unspecified),5.1,0.6,-1,-2,4.4,-5,8,4.5
O=C(COc1cccc(Cl)c1)Nc1cc(S(=O)(=O)N2CCOCC2)ccc1N1CCOCC1,0.7,-0.9,4,18,-3.7,4,5,1.2
CCN(CC(=O)Nc1c(F)cccc1F)C(=O)C1CCN(S(=O)(=O)c2ccc(C)cc2C)CC1,-0.6,0.6,3,0,8.2,-1,-1,0.5
COc1nnc(-c2ccc(N3CCOCC3)c(NC(=O)c3ccc(C)cc3)c2)c2ccccc12,-2.5,0.1,-4,32,-1.2,0,-8,1.3
CCOC(=O)N1CCN(C(=O)c2cc3ccccc3o2)CC1,-3.6,0.0,·,6,2.0,4,-5,1.8
COc1cc2c(c3oc(-c4ccccc4)cc(=O)c13)C=CC(C)(C)O2,-0.9,0.5,34,53,2.4,16,-6,-5.1
CCN(CC)S(=O)(=O)c1ccc(N2CCCC2)c(NC(=O)c2ccncc2)c1,-3.1,-0.1,-8,-4,4.1,0,-2,3.5
COc1cccc(CC(=O)NNC(=O)c2c(-c3ccccc3)noc2C)c1,-13,0.8,-6,-7,1.7,5,-5,1.4
CNC(=O)NNC(=O)c1csc(-c2ccc(C(F)(F)F)cc2Cl)n1,0.2,1.7,-1,8,1.0,-16,-15,1.6
CC(OC(=O)/C(C#N)=C/c1ccc(N(C)C)cc1)C(=O)NCc1ccco1 (stereo unspecified),5.2,0.3,2,-8,-12,·,2,·
O=C(Nc1ccccc1-c1ccccc1)C1CCCCC1,-3.6,1.1,-4,-14,-0.1,4,1,4.3
CC(C)Oc1ccc(C(=O)Nc2ccc(N(C)C)cc2)cc1,2.5,-4.3,-8,6,-5.7,-13,8,-3.5
Cn1c2ccccc2c2cc(/C=N/NC(=O)c3ccccc3F)ccc21,-1.4,0.6,8,1,-2.3,10,24,·
COc1cc([N+](=O)[O-])ccc1Nc1nc(C)cc(C)n1,0.2,0.3,-1,5,1.7,-10,-1,-2.0
O=C(NCCOc1ccccc1)C1CCC(=O)N(CCc2ccc(Cl)cc2)C1 (stereo unspecified),-2.2,0.1,-4,-3,-4.3,1,4,-0.1
Cc1ccsc1C(=O)N(C)C1CCS(=O)(=O)C1 (stereo unspecified),-0.1,-0.6,2,·,·,·,-1,0.4
NC(=O)[C@@H]1CCCN1Cc1c(C(=O)N2CCc3ccccc3C2)nc2ccc(Cl)cn12,4.8,-0.5,-1,15,3.3,-1,-9,-0.6
COc1cc(-c2cc(C(=O)OCC(=O)Nc3ccc4c(c3)OCO4)c3ccccc3n2)cc(OC)c1OC,0.4,0.8,-4,6,-1.6,14,0,-1.6
Cc1sc2nc(CSCC(=O)NC(C)(C)C)[nH]c(=O)c2c1C,-2.2,-0.3,-6,16,0.0,-14,18,-2.4
Cc1cc(C)n(-c2ccc(NC(=O)C3CCCCN3C(=O)c3cc(C)oc3C)cc2)n1 (stereo unspecified),4.7,0.2,-8,-3,3.8,-13,1,4.3
Cc1ccc2c(=O)cc(C(=O)NC3CCS(=O)(=O)C3)oc2c1 (stereo unspecified),0.1,0.5,-7,-10,-3.0,-5,0,5.8
CCOC(=O)N1CCN(C(=O)C(=O)NNC(=O)COc2ccc(Cl)cc2)CC1,-8.1,-0.4,-9,-27,3.0,1,2,2.6
CNCC(O)CN(c1ccccc1)c1ccccc1 (stereo unspecified),3.2,1.3,1,-8,-4.6,-2,1,0.7

# For reference, 2 of the compounds above.
SMILES,LANA-H2A inh,A1 inh,Beta cell apopt,T cruzi inh,RanGTP-Impb inh,Calb FLC,Beta2AR agonist,UCH37 DUB inh
Cc1ccc2c(=O)cc(C(=O)NC3CCS(=O)(=O)C3)oc2c1 (stereo unspecified),0.1,0.5,-7,-10,-3.0,-5,0,5.8
CCOC(=O)N1CCN(C(=O)C(=O)NNC(=O)COc2ccc(Cl)cc2)CC1,-8.1,-0.4,-9,-27,3.0,1,2,2.6

# Bioassay records (PubChem BioAssay)
